MgrA DNA FP: S. aureus MgrA activity modulators, primary screen, biochemical, S. aureus Newman, fluorescence polarization. actives 0.13% (n = 84,000). MgrA-DNA binding. inhibition, %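 (about 10 µg/mL by stock and volumes)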;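 active = above 50% in either of two replicates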;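 note: 0% = protein plus DNA without compound and 100% = DNA alone without protein; higher means less MgrA bound to DNA so lower polarization; one replicate is shown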
Sa helicase inh: inhibitors of S. aureus replicative helicase, primary screen, biochemical, fluorescence unwinding readout; actives 0.05% (n = 120,000); replicative DNA helicase (DnaC/DnaB), Staphylococcus aureus; AID 485395, 2010; purified S. aureus helicase, fluorescence unwinding assay; about half of the hits fall short of the stated cut; inhibition, %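 (tested at about 80 µM)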;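 active = both duplicates at 50% or more, or one of them with a favoured structure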;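 note: 0% = mean of negative control wells and 100% = mean of positive control wells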
* = called active by the depositor; nt = not tested or not shown. Some of the compounds tested; count on the stated rates, not on these rows.

SMILES | MgrA DNA FP | Sa helicase inh
CCOC(=O)c1ccc(-n2c(C)cc(C=C3C(=O)NC(=S)NC3=O)c2C)cc1 | 7.0 | 18.0
CCn1c(O)c(C=Nc2cccc(Cl)c2)c(=O)[nH]c1=S | 2.8 | -8.0
CN(Cc1ccccc1)C(=O)C1CC(c2ccc(F)cc2)=NO1 (stereo not drawn) | nt | 5.0
Cc1cc(=O)[nH]c(SCC(=O)N2c3ccccc3CCc3ccccc32)n1 | nt | 35.0
Cc1ccccc1Nc1nc(N)nc(CSc2nnc(-c3ccccc3F)o2)n1 | nt | -15.0
CCOc1cc(C2C(C(=O)OC)=C(C)NC3=C2C(=O)CC(c2ccc(OC)cc2)C3)cc(Cl)c1O (stereo not drawn) | 1.3 | nt
CC(C)(C)c1ccc(C(=O)CC#N)s1 | 0.5 | nt
COc1ccc(-c2nnc(SCCOc3ccc(Cl)cc3)o2)cc1 | nt | -2.0
COc1ccccc1-n1nnnc1-c1ccc2ccccc2n1 | nt | -15.0
Cn1ccc(NC(=O)C(c2ccccc2)c2ccccc2)n1 | nt | 14.0
O=C(COC(=O)c1cccnc1Nc1cccc(C(F)(F)F)c1)NCc1ccco1 | nt | 3.0
CSC1=NC(C)(C)Cc2c(C)cccc21 | -8.2 | 3.0
COc1ccc(S(=O)(=O)Nc2sccc2C#N)cc1 | -0.7 | nt
Cc1cccc(NC(=O)C2(c3ccccc3)CCOCC2)c1 | -3.8 | 5.0
COc1cc(S(=O)(=O)NC(C)(C)CC(C)(C)C)ccc1NC(C)=O | nt | -1.0
O=C(O)CC(C(=O)O)N1C(=O)/C(=C/c2ccc(Cl)cc2)SC1=S (stereo not drawn) | -0.9 | nt
CCOC(=O)Cc1cc(=O)n2[nH]cc(C#N)c2n1 | -4.8 | 0.0
CCOc1cccc(NC(=O)c2ccc(S(=O)(=O)N3CCCC3)cc2)c1 | nt | -7.0
CN1CCC(c2ccc(Cl)s2)=N1 | nt | -8.0
COC(=O)c1c(C)[nH]c(C(=O)C(C)N2CCN(c3ccc(O)cc3)CC2)c1C (stereo not drawn) | nt | 6.0
NC(=O)C1CCN(Cn2cnc3ccccc32)CC1 | -1.9 | nt
Brc1cc(/C=N/n2cnnc2)oc1Br | -1.3 | 17.0
Cc1ccc(S(=O)(=O)NC(=O)N2CCN(C(=O)OC(C)(C)C)CC2)cc1 | -4.1 | nt
Cc1c(NC(=O)c2nn3c(c2Cl)NC(c2ccc(Cl)cc2)CC3C(F)(F)F)c(=O)n(-c2ccccc2)n1C (stereo not drawn) | -0.9 | nt
CC(C)(C)c1ccc(C(=O)NC(=S)NCc2ccco2)cc1 | 0.5 | 10.0
SMILES | MgrA DNA FP | Sa helicase inh
O=C(COc1ccc(-c2nnco2)cc1)N(c1ccccc1)C1CCCCC1 | nt | -8.0
O=C(N/N=C/c1ccco1)C1CC1(c1ccccc1)c1ccccc1 (stereo not drawn) | 5.1 | 10.0
CCOC(=O)n1c(=O)oc2cc(Cl)ccc21 | 1.9 | 2.0
CN(C)/C=C/c1c(C#N)c(=O)ncn1Cc1ccccc1 | 1.5 | 11.0
Clc1cncc(Oc2ccc(-n3cccc3)cn2)c1 | 0.6 | nt
CC(=O)NC(C)C(=O)OCc1ccc(Cl)cc1Cl (stereo not drawn) | 0.2 | -26.0
COc1ccc(-c2noc(=O)n2Cc2cccc(C)c2)cc1 | -4.8 | 5.0
Cc1cc(N2C(=O)CSC2c2ccc([N+](=O)[O-])cc2)ccc1Br (stereo not drawn) | -1.1 | nt
CCN1C(=O)/C(=C2\SC(=S)N(C3CCCC3)C2=O)c2cc(Br)ccc21 | nt | 9.0
COc1ccc(CNC(=O)Cc2coc3cc(C)cc(C)c23)cc1 | 5.6 | 3.0
O=c1[nH]c(CSc2ccccc2)nc2ccccc12 | nt | 14.0
O=C(OCC(=O)C12CC3CC(CC(C3)C1)C2)c1ccccc1 | 0.0 | -17.0
O=C1NC(=Nc2ccccc2)S/C1=C/c1ccccc1Br | 1.6 | nt
CCNc1nc(NCC)nc(NNC(=S)Nc2ccc(C)cc2)n1 | nt | 1.0
Cc1cc(C)n2c(SCC(=O)Nc3ccccc3)nnc2n1 | -2.5 | 12.0
CCC(=O)Nc1ccc(Cl)c(C(F)(F)F)c1 | 0.5 | 5.0
Cc1ccc(NC(=O)CC(CC(=O)O)c2ccccc2)nc1 (stereo not drawn) | -1.1 | nt
COc1ccc2c(c1)[nH]c1c(=O)n(CCCN3CCN(C4CCCCC4)CC3)cnc12 | nt | 4.0
CCc1ccccc1NC(=O)C(C)Oc1ccccc1 (stereo not drawn) | -2.7 | 16.0
CS/C(N)=N/N=C/c1cccs1 | -2.5 | nt
CC1CCc2sc(NC(=O)C(C)C)c(C#N)c2C1 (stereo not drawn) | nt | 4.0
O=c1c2ccccc2nc2n1CCN2 | 3.6 | 2.0
O=C1/C(=C/c2cccnc2)CCC/C1=C\c1cccnc1 | nt | 29.0
CC(C)(C)c1ccc(C(=O)N2CCC(C(=O)O)CC2)cc1 | -3.5 | 5.0
COc1ccc(C2CCCN2C(=O)Nc2ccccc2)cc1OC (stereo not drawn) | -2.0 | 12.0

An excerpt from above in order of the MgrA DNA FP value, rising.
SMILES | MgrA DNA FP | Sa helicase inh
COc1ccc(-c2noc(=O)n2Cc2cccc(C)c2)cc1 | -4.8 | 5.0
CC(C)(C)c1ccc(C(=O)N2CCC(C(=O)O)CC2)cc1 | -3.5 | 5.0
CCc1ccccc1NC(=O)C(C)Oc1ccccc1 (stereo not drawn) | -2.7 | 16.0
Cc1cc(N2C(=O)CSC2c2ccc([N+](=O)[O-])cc2)ccc1Br (stereo not drawn) | -1.1 | nt
O=C(OCC(=O)C12CC3CC(CC(C3)C1)C2)c1ccccc1 | 0.0 | -17.0
CN(C)/C=C/c1c(C#N)c(=O)ncn1Cc1ccccc1 | 1.5 | 11.0
O=C1NC(=Nc2ccccc2)S/C1=C/c1ccccc1Br | 1.6 | nt

Profiles, quoted from the list. Screens in order: MgrA DNA FP | Sa helicase inh
Entry for `COc1ccc(CNC(=O)Cc2coc3cc(C)cc(C)c23)cc1` → 5.6 | 3.0
Entry for `CCC(=O)Nc1ccc(Cl)c(C(F)(F)F)c1` → 0.5 | 5.0
Entry for `CC(=O)NC(C)C(=O)OCc1ccc(Cl)cc1Cl` (stereo not drawn) → 0.2 | -26.0

The list goes on.
SMILES | MgrA DNA FP | Sa helicase inh
CCOC(=O)Nc1ccsc1C(=O)OC | -2.3 | nt
COC(=O)C1=C(C)NC(=O)NC1c1ccccc1 (stereo not drawn) | -0.3 | 3.0
Cc1nc(-c2c(C(=O)NN)noc2C)cs1 | -12.2 | nt
Clc1ccc2oc(-c3ccccn3)nc2c1 | 0.2 | -6.0
c1ccc(-c2noc(NCCN3CCCc4ccccc43)n2)cc1 | nt | 3.0
CC1CCCN(S(=O)(=O)Cc2ccccc2)C1 (stereo not drawn) | 4.9 | -3.0
O=c1[nH]c(-c2ccc(F)cc2)nc2c1sc(=S)n2-c1ccccc1 | nt | 2.0
COc1ccc(NC(=O)C2=CSCCO2)cc1OC | nt | -8.0
O=S(=O)(Cn1nc(Br)nc1Br)c1ccc(Cl)cc1 | 1.0 | nt
O=S(=O)(c1ccccc1)N1CCN(c2ccnc3cc(Cl)ccc23)CC1 | 1.4 | nt
CN(C)c1ccc(/C=C(/C#N)c2ccc(F)cc2)cc1 | -1.1 | 10.0
CCc1ccccc1N1C(=NC(=O)C(C)C)SC2CS(=O)(=O)CC21 (stereo not drawn) | nt | -14.0
CN(C)c1ccc(Cl)nn1 | 1.5 | -6.0
O=C(NCc1ccc(Cl)cc1)C1=CN2CCS(=O)(=O)N=C2C=C1 | nt | 4.0
O=P(O)(/C=C/c1ccccc1)/C=C/c1ccccc1 | 0.8 | 3.0
Cc1cc(C)cc(NC(=O)C(c2ccccc2)N2CCCC2)c1 (stereo not drawn) | nt | 14.0
O=S(=O)(NC1=NCCCCC1)c1ccc(Cl)cc1 | -9.2 | 5.0
CCN1C(=O)c2cccc3c(S(=O)(=O)NCc4ccco4)ccc1c23 | nt | 22.0
O=C(Nc1ccccc1C(=O)Nc1ccccc1C(=O)O)c1ccccc1 | -0.2 | nt
O=C(CN1C(=O)S/C(=C\c2ccc(O)cc2)C1=O)N1CCOCC1 | 0.7 | 5.0
Cc1ccc2nc(C(F)(F)F)cc(N3CCN(CCS(=O)(=O)c4ccc(Cl)cc4)CC3)c2c1 | -0.8 | nt
Nc1nc(NC2CCCCNC2=O)n[nH]1 (stereo not drawn) | 1.1 | nt
CCCCCc1nnc(N)s1 | nt | -18.0
CC(C)CNC(=O)c1cc(-c2cccs2)on1 | 5.0 | 2.0
OCc1nc2ccccc2n1CC(O)COc1ccccc1 (stereo not drawn) | nt | 3.0
SMILES | MgrA DNA FP | Sa helicase inh
N#Cc1nc(-c2ccc(Cl)cc2)oc1NC1CC1 | -2.0 | 1.0
C1=C(c2ccccn2)Oc2ccccc2O1 | 1.1 | 28.0
COc1ccc2c(c1)C(=O)C(CC1(O)C(=O)N(C)c3ccccc31)CC2 (stereo not drawn) | 0.1 | -11.0
O=C(O)CCc1n[nH]c(=O)[nH]c1=O | -3.6 | nt
C1CCC(NC2=NCCCS2)CC1 | 0.2 | -12.0
Cc1noc(C)c1S(=O)(=O)N(C)C1CCCCC1 | -0.2 | nt
O=C(CSc1ccc(Br)cc1)N1CCCCC1 | -1.8 | -22.0
Cc1cc(C)c(C(=O)O)[nH]1 | nt | 4.0
COc1ccc(CCNC2(Cc3ccccc3)CC(C)N(C)CC2C)cc1OC (stereo not drawn) | 0.0 | -9.0
CSCc1nnc(NC(=O)c2ccc(S(=O)(=O)N(CC(C)C)CC(C)C)cc2)o1 | nt | 4.0
COc1ccc(C)cc1S(=O)(=O)NC(C)C(=O)NCc1ccco1 (stereo not drawn) | 3.3 | -6.0
COc1cc(C#N)ccc1OCC(=O)Nc1ccc(F)cc1 | 7.0 | 10.0
S=c1[nH]nc(-c2ccc(Br)cc2)o1 | nt | 14.0
CC(=O)N(C)CP(=O)(O)CN1CCCC1=O | -1.0 | -13.0
OC(CN1CCOCC1)(c1ccccc1)c1ccccc1 | -0.8 | nt
CNC(=O)c1ccccc1Sc1ccccc1C(=O)NC | -2.4 | nt
O=C(CCN1CCN(c2ccccc2)CC1)c1ccc2ccccc2c1 | -12.0 | 4.0
O=C(O)c1cc(Br)c(C(=O)O)cc1Br | 2.7 | nt
O=C(Oc1ccc2c(c1)OCO2)C1COc2ccccc2O1 (stereo not drawn) | nt | -1.0
N#Cc1ccccc1COC(=O)c1cc[n+]([O-])cc1 | nt | 23.0
CCCSc1nc(C)c(-c2csc(C(C#N)=C3CCCC3)n2)cc1C#N | -1.9 | 14.0
Cc1ccccc1COc1ccc(-c2nn[nH]n2)cc1 | -1.8 | 18.0
CC(=O)SC(CC(=O)O)c1nc2ccccc2s1 (stereo not drawn) | nt | -19.0
CC(C)NC(=O)c1nc(-c2cccc(C(F)(F)F)c2)no1 | -0.4 | 0.0
C=CCn1cc(F)c(=O)n(CC=C)c1=O | -0.2 | 0.0
SMILES | MgrA DNA FP | Sa helicase inh
c1cc(CNCCN2CCOCC2)ccn1 | 2.3 | -26.0
C/C(Nc1nc(-c2cc(C)n(CCc3ccccc3)c2C)cs1)=C(/C#N)C(N)=O | nt | -13.0
CC1CCC(=O)C(Sc2nc(C3CC3)cc(-c3cccs3)c2C#N)C1 (stereo not drawn) | nt | -3.0
Cc1n[nH]c(=O)c(N)c1-c1cc(-c2ccc(Cl)c(Cl)c2)n[nH]1 | nt | 26.0
O=C(CSCc1c(F)cccc1Cl)NC1Cc2ccccc2C1 | -3.5 | nt
C1=CCC(CNCCCn2ccnc2)CC1 (stereo not drawn) | -0.8 | 11.0
Cc1ccc(SCC(=O)OCc2nc3ccccc3c(=O)n2CC#N)cc1 | nt | -12.0
COc1cc(C(=O)c2ccccc2C#N)cc(OC)c1OC | 0.3 | nt
Cc1[nH]c2ccc(-c3nnc(SCc4ccc(F)cc4)o3)cc2c1C | 0.6 | 8.0
O=C(NCc1ccccc1)N1CCCCC1 | 1.2 | -3.0
COc1ccccc1-c1coc2cc(OC(=O)c3ccco3)ccc2c1=O | nt | -13.0
COc1ccc(N2Cc3cccc(C(=O)NC(C)CCc4ccco4)c3C2=O)cc1 (stereo not drawn) | nt | 8.0
CC(C)C(c1ccc(N(C)C)cc1)c1ccc(N(C)C)cc1 | 1.6 | -6.0
Cn1c(N)c(C(=O)CN(Cc2ccccc2)Cc2ccccc2)c(=O)n(C)c1=O | nt | 12.0
CCn1c(SC)nnc1C1CCN(C(=O)N(c2ccccc2)c2ccccc2)CC1 | -2.2 | 5.0
CN1CCc2c(sc(NC(=O)c3ccc4ncsc4c3)c2C(N)=O)C1 | nt | -24.0
CCCC(=O)Nc1ccc(C(=O)N2CCc3ccccc32)cc1 | -1.6 | 6.0
C=CC[C@H]1CC=C[C@H](c2ccccc2)N1 | nt | -7.0
O=C(NCC1COC2(CCCC2)O1)c1ccccc1 (stereo not drawn) | nt | 11.0
Cc1ccc(-n2c(C)cc(C(=O)Cn3nc(C)c(C)c(C#N)c3=O)c2C)cc1C | nt | -3.0
O=C(CSC1=NC(=O)C(c2ccccc2)C(=O)N1)Nc1ccc(Cl)cn1 (stereo not drawn) | 1.3 | 4.0
COC(=O)c1sc(-c2ccc(F)cc2)cc1N | -0.8 | nt
CSc1nc(C)cc(NC(N)=O)n1 | 2.6 | 11.0
CC(C(=O)O)N1C(=O)c2cccc3cccc1c23 (stereo not drawn) | -0.5 | 6.0
Cc1cccc(-c2nc(C#N)c(N(C)C)o2)c1 | 1.2 | 6.0
COC(=O)c1cc(=O)n(-c2cc(Cl)cc(Cl)c2)[nH]1 | nt | 40.0
COC(=O)c1cccnc1-c1nc2ccccc2s1 | nt | 6.0
COC(=O)C1=CN(CCCN2CCCC2=O)C=C(C(=O)OC)C1c1ccccc1C(F)(F)F | nt | 15.0
Cc1cc2nc3c(=O)n(C)c(=O)n(C)c3nc2cc1NC(=O)C(F)(F)F | nt | -94.0
CN(C)c1ccc(C(O)c2nc3ccccc3n2Cc2ccccc2)cc1 (stereo not drawn) | -1.9 | -4.0

Bioassay records as filed in PubChem BioAssay.
